miR-21 reporter: raises the signal of a miR-21 reporter | HeLa miR-21 FLuc reporter, luciferase, 48 h | Potency, µM (top dose mostly 38.3 µM), without a hit: at the highest dose reporter change, positive = more light | 340,000 tested, under 10 active | AID 2288; active = well fitted rising curve with a large enough effect; inconclusive = small, poorly fitted or top-dose-only effect; inactive = no such curve, though single readings can be large or run the other way;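 further: % of control where 0% means no effect; miR-21 action dims this reporter so a rising signal means less miR-21 action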
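HeLa cells stably expressing CMV-driven firefly luciferase with a downstream miR-21 binding sequence, endogenously expressing miR-21, were treated with titrations (up to about 40uM final) for 48 hours at 37 degree Celsius. Luciferase luminescence was read after lysis.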
GLA inh pH 4.5: inhibitors of human alpha-galactosidase A at pH 4.5; purified enzyme, 4-MU-alpha-Gal fluorescence, pH 4.5; 230,000 tested, under 10 active; AID 1467; activity change, negative = inhibition, % at 105 µM; P06280; inconclusive = small, poorly fitted or top-dose-only inhibition, or a rising curve; inactive = flat fitted curve, though single readings scatter; no compound was filed as active;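 further: 0% = full activity with enzyme and -100% = basal without enzyme; dose as in the result columns while the protocol names 77 µM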
Rango dissoc inh: inhibition of RanGTP-driven Rango-importin beta dissociation; Biochemical FRET Rango-importin beta, RanGTP-induced dissociation; Potency, µM (top dose mostly 46.1 µM), without a hit: at the top dose activity change, negative = inhibition; O95149+P62826; 0.071% of 340,000 active; active means falling FRET ratio curve, often poorly fitted, with flat reads before Ran was added; inconclusive means other falling curves, or compound fluorescence or quenching; inactive means flat or rising ratio curve;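 further: potency means the concentration at half of the fitted maximal effect; % of control where 0% means no effect; nearly all actives have a fitted effect of over 45% in size; -100% = wells without RanGTP and RCC1; the record marks most hits as doubtful in a second field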
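Compounds preincubate 5 min with complex of recombinant Rango and importin beta in PBS with 1 mM DTT. Ran (0.6 uM) loaded with 2 mM GTP plus 0.2 uM RCC1 starts dissociation; FRET is recorded 45 min later.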
Rango-impB inh: inhibitors of Rango-importin beta complex formation; Potency, µM (top dose mostly 92.2 µM), for the others: top-dose inhibition of complex formation; AID 540263; 0.031% of 340,000 active; Q14974; Rango CFP/YFP FRET sensor + importin beta, 45 min; active = rising FRET ratio curve, often small or poorly fitted; inconclusive = mostly compound fluorescence or quenching in the first reads; inactive = flat curves in all reads;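 further: potency means the concentration at half of the fitted maximal effect; 0% = DMSO wells and 100% = buffer wells lacking importin beta; nearly all actives have a fitted effect of over 15% in size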
Target sequence (Q14974 whole entry, looked up): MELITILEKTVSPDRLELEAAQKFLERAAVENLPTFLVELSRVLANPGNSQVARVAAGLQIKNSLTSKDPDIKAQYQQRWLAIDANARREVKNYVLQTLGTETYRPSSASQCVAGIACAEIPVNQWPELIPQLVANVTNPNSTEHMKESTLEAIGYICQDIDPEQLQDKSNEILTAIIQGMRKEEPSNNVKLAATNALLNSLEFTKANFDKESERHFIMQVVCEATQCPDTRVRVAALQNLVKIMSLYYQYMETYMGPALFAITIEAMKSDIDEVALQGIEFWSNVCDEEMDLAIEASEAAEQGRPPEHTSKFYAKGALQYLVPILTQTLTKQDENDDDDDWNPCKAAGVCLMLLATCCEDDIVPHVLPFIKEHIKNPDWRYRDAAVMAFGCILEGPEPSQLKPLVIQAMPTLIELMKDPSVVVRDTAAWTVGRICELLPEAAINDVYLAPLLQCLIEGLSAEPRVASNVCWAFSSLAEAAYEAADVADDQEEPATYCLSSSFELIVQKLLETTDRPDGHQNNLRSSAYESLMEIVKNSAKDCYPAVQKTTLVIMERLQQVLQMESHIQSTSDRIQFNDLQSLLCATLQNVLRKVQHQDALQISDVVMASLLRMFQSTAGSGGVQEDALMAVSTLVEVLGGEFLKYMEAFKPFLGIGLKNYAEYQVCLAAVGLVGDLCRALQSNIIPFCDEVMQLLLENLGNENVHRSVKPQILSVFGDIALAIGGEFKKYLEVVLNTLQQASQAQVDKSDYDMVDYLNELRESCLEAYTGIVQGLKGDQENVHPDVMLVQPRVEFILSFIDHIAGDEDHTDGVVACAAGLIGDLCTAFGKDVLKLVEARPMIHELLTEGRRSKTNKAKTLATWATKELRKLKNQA
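FRET biosensor Rango (snurportin 1 IBB between N-terminal EYFP and C-terminal Cerulean), 50 nM in PBS/1 mM DTT/0.02% Tween-20/0.1% BSA, preincubated 5 min RT with compound; 0.125 microM importin beta added, 45 min RT, CFP/YFP FRET ratio read.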
Numbers without * were called inactive; u = inconclusive; x = no result given. Only part of the results is shown (hit frequency here may not be typical).

A first look (six entries):
no.	smiles	miR-21 reporter	GLA inh pH 4.5	Rango dissoc inh	Rango-impB inh
1	O=C(COC(=O)/C=C/C(=O)OCC(=O)Nc1ccccc1F)Nc1ccccc1F	-5%	-5	-5%	-2.9%
2	O=C1N[C@@H](Cc2ccccc2)C(=O)N1CCN1CCOCC1	-2%	-2	5%	5.6%
3	Brc1ccccc1C1=Nn2c(nnc2-c2ccco2)SC1	-21%	-1	16%	-0.8%
4	CCOC(=O)Cn1c(=NC(=O)c2cccs2)sc2cc(C(=O)OC)ccc21	-43%	0	5%	-0.8%
5	Cc1nc(N2CCOCC2)c2c(C)c(C(=O)Nc3ccccc3C(F)(F)F)sc2n1	-6%	-4	5%	-1.6%
6	O=C(COC(=O)C1CCN(S(=O)(=O)c2ccc3c(c2)OCCO3)CC1)NC1CCS(=O)(=O)C1 (stereo unspecified)	x	x	-3%	1.8%

This part in full, repeating the preview:
no.	smiles	miR-21 reporter	GLA inh pH 4.5	Rango dissoc inh	Rango-impB inh
1	O=C(COC(=O)/C=C/C(=O)OCC(=O)Nc1ccccc1F)Nc1ccccc1F	-5%	-5	-5%	-2.9%
2	O=C1N[C@@H](Cc2ccccc2)C(=O)N1CCN1CCOCC1	-2%	-2	5%	5.6%
3	Brc1ccccc1C1=Nn2c(nnc2-c2ccco2)SC1	-21%	-1	16%	-0.8%
4	CCOC(=O)Cn1c(=NC(=O)c2cccs2)sc2cc(C(=O)OC)ccc21	-43%	0	5%	-0.8%
5	Cc1nc(N2CCOCC2)c2c(C)c(C(=O)Nc3ccccc3C(F)(F)F)sc2n1	-6%	-4	5%	-1.6%
6	O=C(COC(=O)C1CCN(S(=O)(=O)c2ccc3c(c2)OCCO3)CC1)NC1CCS(=O)(=O)C1 (stereo unspecified)	x	x	-3%	1.8%
7	CC1(C)CC2CC(C)(CN2CC(=O)C(C#N)c2ccccc2)C1 (stereo unspecified)	-4%	5	3%	-1.2%
8	CCCNC(=O)C12CCC(C)(C(=O)O1)C2(C)C (stereo unspecified)	4%	-6	8%	0.1%
9	Nc1nnc(CC2=CCCCC2)s1	-3%	2	21%	7.1%
10	COC(=O)C1C(=O)C=C(Nc2ccc(F)cc2F)CC1c1ccc(OC)cc1 (stereo unspecified)	-48%	3	6%	0.8%
11	CCN(CC)CCCNC(=O)c1ccc(Cl)c(S(=O)(=O)Nc2ccccc2OC)c1	0%	-17	-21%	0.8%
12	C#CCOCCOCCOCCNc1nc(N2CCN(C(=O)[C@H](CCCCN)n3cc([C@@H](N)[C@H](C)CC)nn3)CC2)nc(N2CCN(C(=O)[C@H](CCC(=O)O)n3cc([C@@H](N)CCCCN)nn3)CC2)n1	x	x	33%	1.3%
13	CCCCn1c2nc3ccccc3nc2c2c(=O)n(CCC(C)C)cnc21	1%	-4	-6%	-2.0%
14	CCOc1ccc(-n2cc(C(=O)N3CCC(C)CC3)c3cc(OC)c(OC)cc3c2=O)cc1	2%	1	27%	1.1%
15	COc1ccc(-n2c(C)cc(/C=N/Nc3nc(N4CCOCC4)nc(N4CCOCC4)n3)c2C)cc1	15%	2	-17%	0.9%
16	COc1ccc(NC(=O)NC(C)(C(F)(F)F)C(F)(F)F)cc1	-8%	-2	0%	-1.7%
17	c1ccc(CN2CCN(C3=Nc4cccc5cccc3c45)CC2)cc1	-20%	-13	15%	u
18	CCN(CC)c1ccc(/C=C2/SC(=O)N(C(C)C)C2=O)o1	u	-2	u	u
19	COc1ccccc1NC(=O)CN1CCN(c2ccc(F)cc2)CC1	x	x	2%	2.1%
20	Clc1ccc(-c2ccc(CNCc3ccccn3)o2)cc1	-50%	x	-7%	0.1%
21	COc1ccc(Nc2cc(=O)oc3ccccc23)cc1	15%	13	4%	-5.6%
22	CCOC(=O)c1ccc(-n2c(N)c(C(=O)NCc3ccco3)sc2=S)cc1	-7%	-12	-2%	-0.1%
23	CC(NCC(O)c1ccc([N+](=O)[O-])cc1)C12CC3CC(CC(C3)C1)C2 (stereo unspecified)	12%	-12	-14%	0.0%
24	O=c1/c(=C\c2ccc(O)cc2)sc2n1C(c1ccccc1)C(c1ccccc1)=NN=2 (stereo unspecified)	-10%	2	u	u
25	Cc1ccc(Nc2nc(N)nc(CN3CCCCCC3)n2)c(C)c1	-6%	-6	u	1.3%

Brought forward from above: two entries, followed by the next part.
no.	smiles	miR-21 reporter	GLA inh pH 4.5	Rango dissoc inh	Rango-impB inh
24	O=c1/c(=C\c2ccc(O)cc2)sc2n1C(c1ccccc1)C(c1ccccc1)=NN=2 (stereo unspecified)	-10%	2	u	u
25	Cc1ccc(Nc2nc(N)nc(CN3CCCCCC3)n2)c(C)c1	-6%	-6	u	1.3%
26	O=C(O)c1cccc(-n2c(/C=C/c3ccc([N+](=O)[O-])cc3)nc3ccccc3c2=O)c1	-1%	x	-20%	-0.3%
27	Cc1ccccc1/C=c1\s/c(=C\C(=O)C(C)(C)C)[nH]c1=O	14%	3	-24%	u
28	Cc1ccccc1OCCOC(=O)c1nc2nccc(C)n2n1	-3%	-11	1%	-4.2%
29	COc1ccccc1/C=C1/C(=O)ON=C1C	-2%	x	1%	-0.4%
30	Cc1cc(C)n(-c2nc3c(c(=O)[nH]c(=O)n3C)n2CC(C)C)n1	-17%	-10	12%	-2.9%
31	CCN(CCn1cccn1)C(=O)C1CCC(=O)N(CCN2CCOCC2)C1 (stereo unspecified)	0%	x	-7%	0.3%
32	Nc1ccc(Nc2nc3ccccc3[nH]2)cc1	-8%	x	-7%	-0.9%
33	CCCc1c(C(=O)NNc2cccc(Cl)c2)cnn1-c1ccccc1	-17%	-10	14%	2.9%
34	CCCC1=C(C(=O)OCC)C(c2cc(Cl)cc(OC)c2OCC(=O)OCC)NC(=O)N1 (stereo unspecified)	-7%	-8	-1%	-1.7%
35	Cc1nn(-c2ccc(N3CCOCC3)nn2)c(C)c1CCC(=O)N1CCN(C)CC1	-5%	x	-1%	0.0%
36	NNC(=O)Cn1cnc2ccccc21	1%	3	12%	-3.8%
37	CCn1ncc(C(=O)Nc2cc(C)on2)c1C	-35%	3	-1%	-2.4%
38	Cc1ccc(Nc2ncnc3ccccc23)cc1	-51%	-26	10%	1.1%
39	CC1(C)CC(=O)c2cc(OCC(=O)NCCCN3CCN(c4ccc(F)cc4)CC3)ccc2O1	17%	4	-9%	5.9%
40	C=CCNc1nc(C(=O)OCC(=O)c2ccccc2)cs1	-2%	x	9%	-3.0%
41	C=CCNc1sc(C(=O)C2CC2)c(N)c1C#N	-10%	-7	8%	u
42	CCOC(=O)c1cnc2c(C(=O)OC)cccc2c1NCc1ccco1	-1%	-9	-18%	-3.6%
43	NC(=O)c1cc([N+](=O)[O-])ccc1NCc1cnccn1	x	x	-12%	2.4%
44	COc1cccc(NC(=O)CN(C)C(=O)[C@@H]2CCCN2C(=O)c2cccs2)c1	x	x	-3%	4.5%
45	O=C(NNC(=O)c1ccc2ccccc2c1O)c1cccs1	-31%	x	-12%	-4.4%
46	O=C(NC1CCCC1)c1sc(=S)n2c1[nH]c(=O)c1ccccc12	-7%	-6	0%	-2.6%
47	Cc1ccc(CNS(=O)(=O)c2ccc3c(c2)CCN3C(=O)CCCC(=O)O)cc1	-1%	-3	37%	2.9%
48	O=C(Nc1ccccc1)N1CCN(c2ccccn2)CC1	-3%	5	-9%	-0.4%
49	COc1ccc(C2NC(c3ccc(OC)cc3)C(C)C(=O)C2C)cc1 (stereo unspecified)	-8%	x	-1%	3.4%
50	O=[N+]([O-])c1ccccc1/C=C/CN1CCSCC1	-1%	x	-4%	u
51	O=C(/C=C/c1ccc(Cl)c(Cl)c1)NCc1ccco1	-14%	3	20%	-6.7%
52	COC(=O)/C(C#N)=C/N(C)C	6%	4	5%	0.3%
53	O=C(COC(=O)c1c(Cl)ccc(Cl)c1Cl)NC1CCS(=O)(=O)C1 (stereo unspecified)	0%	5	-1%	-2.4%
54	COc1cc(-c2c(NC(=O)c3ccco3)oc3ccccc3c2=O)cc(OC)c1OC	5%	x	11%	-2.9%
55	COc1ccc(S(=O)(=O)N2CCC(C(=O)N[C@H](C(=O)N3CCCCCC3)C(C)C)CC2)cc1	0%	x	-6%	-2.5%
56	Cc1cccc(C(=O)NC2CCN(C(=O)NCc3ccccc3)CC2)c1	0%	x	5%	0.1%
57	COC(=O)C1=NN(c2ccc(C)cc2)C2C(=O)N(c3ccccc3OC)C(=O)C12 (stereo unspecified)	1%	0	u	u
58	O=C(NN1CC(C(=O)OCc2ccccc2F)CC1=O)c1ccccc1 (stereo unspecified)	1%	x	-2%	-2.7%
59	CCC1Sc2ccc(S(=O)(=O)Nc3ccc(OC)cc3)cc2NC1=O (stereo unspecified)	9%	x	-10%	2.5%
60	COc1ccccc1N1CCN(CCCN2CC(=O)N3CCCCC3C2=O)CC1 (stereo unspecified)	x	x	1%	1.5%
61	COc1ccc(S(=O)(=O)N2CCCC(C(=O)NCc3ccco3)C2)cc1OC (stereo unspecified)	3%	x	2%	-0.7%
62	CC(=O)Nc1ccc(-n2nnnc2SCC(=O)Nc2cccc(NC(=O)c3ccco3)c2)cc1	-6%	5	u	-0.3%
63	O=C(CN1C(=O)/C(=C/c2ccccc2F)Sc2ccccc21)NCC1CCCO1 (stereo unspecified)	-2%	x	-22%	u
64	CC(=O)NC(=S)Nc1sc2c(c1C#N)CCCCC2	-55%	-8	-4%	1.5%
65	OCCNc1nc(Nc2ccc(Br)cc2)nc2ccccc12	3%	-5	9%	2.7%
66	CCOC(=O)C1(Cc2ccccc2C)CCCN(S(=O)(=O)CC)C1 (stereo unspecified)	-4%	x	-18%	-2.0%
67	C=CCOc1ccn(C)c(=O)n1	7%	-4	-7%	-0.4%
68	CN(c1ccc(C(=O)Nc2ccccc2Sc2ccccc2)cc1)S(C)(=O)=O	-7%	-8	-2%	0.2%
69	CCc1cc2c(N3CCN(c4nnc(CC)s4)CC3)ncnc2s1	u	1	18%	0.3%
70	Cc1cccc(-n2nc(C(=O)c3ccco3)cc(-c3nc4ccccc4[nH]3)c2=N)c1	-11%	-6	-24%	u
71	O=C(NC(Cc1ccccc1)C(=O)O)/C(=C/c1ccccc1)NC(=O)c1ccc(Br)o1 (stereo unspecified)	0%	x	u	u
72	O=C(/C=C/c1ccc(F)cc1)NC(=S)N1CCCCC1c1cccnc1 (stereo unspecified)	-11%	3	0%	1.9%
73	COc1ccccc1C(=O)N/N=C(\C)CC(=O)Nc1ccc(Nc2ccccc2)cc1	-12%	x	-21%	0.4%
74	N#C/C(C(=O)c1ccccc1)=C1/SC=C(N)N1c1ccccc1	-33%	1	x	x
75	CC1=C(Cl)C2=NS(=O)(=O)CCN2C=C1Cl	-5%	-2	-1%	2.3%

New compounds follow
no.	smiles	miR-21 reporter	GLA inh pH 4.5	Rango dissoc inh	Rango-impB inh
76	CCOc1cc(/C=N\NC(N)=O)cc(Br)c1OC(C)C	-22%	-3	3%	-1.0%
77	COc1ccc(S(=O)(=O)Nc2nc3ccccc3nc2NCc2ccc3c(c2)OCO3)cc1	0%	-8	2%	1.6%
78	Cc1ccc(N2CCN(c3ccc(NC(=O)CCC(=O)O)cc3)CC2)cc1	-7%	1	0%	-0.6%
79	Cc1c(NC(=O)C(=O)N/N=C/c2cccs2)c(=O)n(-c2ccccc2)n1C	-1%	0	20%	-3.6%
80	O=C(/C=C/c1cccc(Cl)c1)NCCc1ccccc1	-49%	-1	1%	0.3%
81	Cc1cc2[nH]c3ccccc3c2cn1	-11%	x	6%	-3.9%
82	CCC(=O)Nc1nc2ccc(NC(=O)COc3ccccc3)cc2s1	-3%	x	-4%	-0.6%
83	CCC(Sc1nc(-c2ccccc2)cc(=O)[nH]1)C(=O)O (stereo unspecified)	-3%	-1	3%	-5.1%
84	CN(C)CCC(=O)c1cccc(Br)c1	1%	4	1%	-0.3%
85	CC1CCN(C(=O)CCC(=O)Nc2nnc(C3CCCCC3)s2)CC1	1%	x	-1%	5.3%

Values by screen from the list.
Nos. 76 to 85 in miR-21 reporter: -22%, 0%, -7%, -1%, -49%, -11%, -3%, -3%, 1%, 1%
Nos. 76 to 85 in Rango-impB inh: -1.0%, 1.6%, -0.6%, -3.6%, 0.3%, -3.9%, -0.6%, -5.1%, -0.3%, 5.3%

Source: PubChem
